Bioassay records (PubChem)
Calb FLC: C. albicans growth inhibition with fluconazole, primary screen, CaCi-2 strain, Alamar Blue fluorescence; C. albicans CaCi-2 (fluconazole-resistant clinical isolate) + fluconazole, 48 h; growth inhibition, % (test concentration not listed); 300,000 tested, 0.57% active; AID 1979, 2009;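 active = most replicates above 75%; inconclusive = exactly half above 75%; inactive = most below 75%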;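 also: all wells also contain fluconazole at 8 µg/ml as a sub-toxic cotreatment; 0% = median of DMSO wells and 100% = median of geldanamycin control wells; wells of about 8 µL received 7.5 nL stock; the first replicate is given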
Vif A3G: inhibitors of Vif binding to APOBEC3G peptide, primary screen, biochemical, TR-FRET, GST-Vif 1-94, biotin-A3G peptide, dose response retest (AID 1117319) | TR-FRET GST-Vif / biotin-A3G peptide binding; higher % means a stronger effect; test concentration not given here; strong numbers were not always called active | inhibition, %; hits with a dose series show IC50 in µM | 260,000 tested, 0.57% active;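 active = above the screen mean plus three standard deviations and confirmed in dose response; inconclusive = results disagree or hit not tested in dose response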;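 also: Vif residues 1-94 fused to GST binding biotinylated APOBEC3G peptide 110-148; 0% = full assay without inhibitor and 100% = GST in place of GST-Vif; retest series ran down from 100 µM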
LANA-H2A inh: blockers of LANA interaction with H2A/H2B – biochemical, FP readout, HTS, primary screen | cell-free LANA-H2A/H2B peptide, fluorescence polarization | inhibition, % (no concentration beside the values) | 320,000 tested, 0.6% active; in the data active = inhibition mostly above about 10%, no sharp cut-off; inactive = mostly below about 6.7%;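 also: stock transfer was 7.5 nL into about 10 µL; 0% = median of vehicle wells and 100% = median of positive control wells; one replicate is shown; the record names a cut of 25% in any replicate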
RanGTP-Impb inh: inhibitors of RanGTP-importin-beta interaction, primary screen, biochemical, FRET, CFP-Ran, YFP-importin-beta, homogeneous | AID 2216, 2009 | cell-free CFP-Ran/YFP-importin-beta FRET ratio | inhibition, % (no concentration beside the values) | 300,000 tested, 1.1% active | Ran GTPase (GTP-bound) - importin-beta complex;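 active = most replicates above 15%; inconclusive = exactly half above 15%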;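 also: 0% = DMSO wells and 100% = Ran loaded with GDP instead of GTP; wells of about 40 µL received 100 nL stock; the first replicate is given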
Bfl-1 A1 inh: caspase 3/7 activation in MEF A1-2A-BIM cells, primary screen, A1 inhibitor project, cell-based, luminescence, HTS | Caspase-Glo 3/7 luminescence, 3 h; percent of clofoctol response, vehicle zero | caspase activation, % (test concentration not listed) | 330,000 tested, 0.066% active;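 active = over half of replicate activation scores above 10%, or exactly half above 10 with the replicate mean above 10; inconclusive = replicate mean below 10 yet half the replicates above 10; inactive = over half of replicates below 10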;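 also: wells of about 30 µL received 50 nL stock; many hits fall short of the cut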
Beta cell apopt: inhibitors of cytokine-induced beta cell apoptosis, primary screen, luminescence; 300,000 tested, 0.8% active; protection from apoptosis, % (test concentration not listed); INS-1E cytokine-induced death, ATP luminescence, 48 h; percent of positive-control rescue, neutral wells zero; AID 435005, 2010;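 active = all replicates at 75% or more, or half of them and the mean; inconclusive = half reach 75% but not the mean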;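 also: 0% = cytokine-treated negative control wells and 100% = positive control rescue; higher means more ATP so stronger rescue from cytokine killing; wells of about 40 µL received 100 nL stock; the first replicate is given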
T cruzi repl: inhibitors of intracellular T. cruzi growth, primary screen, luminescence, NIH3T3 host cells; T. cruzi beta-gal in NIH3T3, 90 h; AID 1885, 2009; 300,000 tested, 1.4% active; inhibition, % (no concentration beside the values);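 active = mean inhibition across valid replicates above about 55%, limit read from the data; inconclusive = mean below that limit but half or more replicates reach it; inactive = mean below it, under half of replicates reach it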;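 also: signal also drops with host cell toxicity which is not excluded here; 0% = plate median of DMSO wells and 100% = zero luminescence signal; higher percent means less beta-gal luminescence so fewer parasites; stock transfer was 50 nL into about 50 µL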
MLL AF4-AF9 inh: inhibitors of AF4 peptide binding to AF9, primary screen, biochemical, AlphaScreen, biotin-AF4 peptide, FLAG-AF9, single point | inhibition, % at 10 µM | 350,000 tested, 0.47% active;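 active = every replicate reaching a set inhibition limit, whatever the replicate mean, cut at about 25% in these data; inconclusive = mean inhibition reaches that limit but some replicates miss it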;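 also: 0% = plate neutral control median and 100% = total signal loss; the record names both 10 and 1 µM as test concentration; the first replicate is given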
Target sequence (P42568 whole entry, looked up): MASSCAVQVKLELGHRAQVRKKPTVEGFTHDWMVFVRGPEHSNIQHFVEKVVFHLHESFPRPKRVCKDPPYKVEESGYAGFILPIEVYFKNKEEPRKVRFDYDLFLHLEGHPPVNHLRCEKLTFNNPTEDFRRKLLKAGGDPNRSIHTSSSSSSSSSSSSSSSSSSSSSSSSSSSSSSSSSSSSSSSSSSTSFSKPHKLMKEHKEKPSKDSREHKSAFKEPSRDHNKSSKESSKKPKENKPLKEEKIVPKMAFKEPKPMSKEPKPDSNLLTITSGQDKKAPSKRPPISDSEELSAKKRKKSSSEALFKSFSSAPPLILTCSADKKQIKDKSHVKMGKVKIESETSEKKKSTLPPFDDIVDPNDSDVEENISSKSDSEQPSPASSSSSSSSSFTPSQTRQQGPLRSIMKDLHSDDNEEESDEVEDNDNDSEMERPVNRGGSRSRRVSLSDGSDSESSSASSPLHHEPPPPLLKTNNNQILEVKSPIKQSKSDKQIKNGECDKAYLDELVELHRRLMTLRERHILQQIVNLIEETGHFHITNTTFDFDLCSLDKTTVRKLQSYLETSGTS
Active calls of the source: *; ? = inconclusive; / = no result given.

canonical_smiles	Calb FLC	Vif A3G	LANA-H2A inh	RanGTP-Impb inh	Bfl-1 A1 inh	Beta cell apopt	T cruzi repl	MLL AF4-AF9 inh
CCOC(=O)c1ccc(NC(=O)c2cc3ccccc3o2)cc1	-2	1%	-1.0	4.0	-3.4	3	1	/
O=C(CN1N=C(c2ccccc2)CCC1=O)NCc1cccs1	?	/	6.3	2.1	-0.1	/	-9	6.5
Cc1cc(C)nc(SCc2nnc(SCC(=O)Nc3nc(-c4ccccc4)cs3)n2C)n1	4	-21%	3.0	11	1.1	-2	14	/
CC1(C)Cc2c(sc3nc(=S)[nH]c(N)c23)CO1	25	/	-0.3	4.9	0.0	-5	2	/
CCCCCCCC(=O)NNC(=O)c1ccc(F)cc1	0	3%	-2.5	2.4	0.2	1	-7	/
N#CCc1ccccc1C(=O)OCC(=O)N(Cc1ccccc1)Cc1ccccc1	/	-10%	-1.2	/	-0.8	7	/	-12
CC12CCC(C(=O)NCc3ccc(F)cc3)(OC1=O)C2(C)C (stereo not given)	21	-8%	/	-5.4	1.0	-2	-2	-0.8
COc1ccc(CN2C(=O)C(C)Nc3ncnc(N4CCN(c5ccccn5)CC4)c32)cc1 (stereo not given)	/	/	-1.6	/	-0.1	-5	/	6.4
COc1ccc(-c2nnc(SCC(=O)Nc3ccccc3OC)o2)cc1	-9	4%	-0.2	0.6	-0.1	-3	1	-0.2
Cn1cc(S(=O)(=O)c2ccccc2)n(C)c1=O	4	2%	1.2	-1.1	-0.1	-4	-12	0.3
CN1CCN(C(=O)c2ccccc2NS(=O)(=O)c2ccc(F)cc2)CC1	/	-3%	2.5	/	-1.0	-2	/	-4.6
CC1=C(C(N)=O)C(c2sccc2C)n2nnnc2N1 (stereo not given)	-1	2%	-0.3	3.2	-0.9	-3	-10	/
CCN(CC)c1ccc(/C=N\N2CCN(Cc3ccc(C)cc3)CC2)cc1	-39	-8%	-0.3	?	-2.1	0	18	20
CC1(C)CCCN(C(=O)N2c3ccccc3Sc3ccccc32)C1	-5	1%	-3.9	-1.5	0.0	/	13	/
CC(C)CNC(=O)C1CCN(c2ccc(S(=O)(=O)N3CCOCC3)cc2)CC1	-20	1%	5.6	-1.8	0.4	7	3	/
COc1cc2c(cc1OC)C(COc1ccccc1OC)N(C(=O)C(C)C)CC2 (stereo not given)	0	5%	/	4.3	-0.4	-1	2	0.6
COc1ccc([N+](=O)[O-])cc1NCc1cccnc1	-5	/	9.3	0.5	-0.5	/	-12	5.5
CC(=O)N1CCN(c2ccc(NC(=O)c3ccc4c(c3)OCO4)cc2)CC1	-1	18%	-3.7	-3.2	0.7	-4	-5	/
CC(C)[C@H](NS(=O)(=O)c1ccc(Cl)cc1)C(=O)OCC(=O)NCCN1C(=O)CSC1=O	-4	/	-0.7	3.7	0.4	-8	-11	0.1
COc1ccccc1/C=C/C(=O)NC(=S)NC(C)C	-3	0%	-1.8	-1.9	-0.5	10	3	8.7
CCOC(=O)C1=C(C)N(C)C(=O)NC1c1cc2c(cc1Br)OCO2 (stereo not given)	29	-4%	2.8	0.2	-0.3	9	-12	/
COc1cc(C2C(C#N)=C(N)Oc3cc(O)ccc32)cc(OC)c1OC (stereo not given)	-1	5%	1.2	69*	0.6	-8	-38	/
CC(=O)O[C@H]1C[C@@H]2CC[C@@H]3[C@H](CC[C@@]4(C)[C@H]3C[C@H]([N+]3(C)CCCCC3)[C@@H]4OC(C)=O)[C@@]2(C)C[C@@H]1[N+]1(C)CCCCC1	/	/	1.4	/	-0.4	-6	/	7.0
Cc1ccccc1CC1(CO)CCCN(Cc2ccn[nH]2)C1 (stereo not given)	0	1%	9.1	6.1	-0.1	3	-9	-21
O=c1[nH]cnc2sc3c(c12)CCN(Cc1ccccc1)C3	14	11%	0.9	0.2	0.1	-4	-5	/
Cc1cccc(Cc2cnc(N3C(=N)SC(c4ccccc4)C3=O)s2)c1 (stereo not given)	-2	-8%	/	-1.4	-0.3	12	-7	-1.8
COc1ccc2c(C)c(CC(=O)N3CCN(C(=O)C4COc5ccccc5O4)CC3)c(=O)oc2c1C (stereo not given)	4	/	5.8	-1.9	-0.9	-4	-6	0.1
O=C(OC(C(=O)O)C(OC(=O)c1ccccc1)C(=O)NCc1ccccc1)c1ccccc1 (stereo not given)	-1	-8%	-1.2	-1.1	-0.3	0	1	/
O=C(OCC(=O)N1CCOCC1)c1ccc(Cl)nc1	-7	-2%	2.2	-2.1	-0.7	-1	-2	0.0
Cc1cc(NC(=O)CSc2nnnn2C)n(-c2ccccc2)n1	-4	2%	-1.9	?	1.1	-6	-15	/
Cc1ccc2c(COC(=O)c3ccccc3F)cc(=O)oc2c1	2	-10%	5.7	1.5	-1.0	1	4	-11
Cc1cc(C)cc(N(CC(=O)NCc2ccc(F)cc2)C(=O)CCC(=O)Nc2ccccn2)c1	8	1%	4.4	-0.2	0.9	-8	-10	-11
O=Cc1ccccc1OCCOc1ccc([N+](=O)[O-])cc1	-3	-4%	-32	-3.1	-0.8	3	-16	2.3
COc1cc(-c2nnc(SCC(=O)NC3CCS(=O)(=O)C3)o2)cc(OC)c1OC (stereo not given)	-5	-1%	1.9	0.4	1.0	-3	3	0.2
Cc1nc(C(F)(F)F)ccc1C(=O)Nc1ccccc1F	6	2%	-1.4	3.7	0.2	-5	3	-3.3
CC1(C)CC(NC(=O)c2ccc(-c3ccc([N+](=O)[O-])cc3)o2)CC(C)(C)N1	-2	/	-9.7	-2.4	0.3	0	0	-4.6
CC1=NN(C(N)=S)C(=O)C1N=Nc1c(C)cc(C)cc1C (stereo not given)	-8	2%	-1.0	1.4	0.4	24	-8	/
CCCn1c(CCNc2nc(-c3ccc(OC)cc3)cs2)nc2ccccc21	-4	/	-2.7	1.5	-2.3	3	-1	-3.5
CCc1nnc(NC(=O)CSc2nccn2-c2cccc(C)c2)s1	-2	-4%	2.9	?	0.3	-1	-12	2.2
CNC(=O)CN(C1CCCCC1)S(=O)(=O)c1ccc(F)cc1	-2	-2%	-1.9	-1.9	0.2	-5	-15	/
Fc1cc(F)cc(NC(=S)N2CCN(c3ncccn3)CC2)c1	0	-3%	-4.6	6.3	-0.7	-2	-26	-4.2
O=C(CCNC(=O)c1ccccc1Cl)Nc1nc2ccccc2s1	-19	14%	1.0	1.0	-0.2	4	11	-0.6
O=C(NCc1nnnn1-c1ccc(F)c(F)c1)c1ccc2ccccc2c1	20	5%	-7.4	?	1.3	/	1	-2.7
CCc1c(C)sc(NC(=O)c2ccco2)c1C#N	-2	3%	/	2.7	/	/	48	0.3
COc1c(Cl)cc(Cl)cc1C(=O)n1nc(C)cc1C	-6	-9%	1.1	-2.3	0.5	-1	-12	/
Cc1ccc(SCC(=O)NNC(=O)c2ccccc2)c(C)c1	-3	/	-3.4	-6.8	0.7	-7	-5	-1.0
CCOc1cc(CNn2nnnc2N)ccc1OCC(=O)NC(C)(C)C	?	27%	-80	-0.6	1.0	/	6	/
O=C(CSc1n[nH]c(=O)[nH]c1=O)Nc1ccc(SC(F)F)cc1	/	1%	-1.4	/	-1.2	7	/	-6.3
O=C(NCc1ccccc1Cl)c1ccccc1CCc1ccccc1	-6	/	-2.1	6.3	0.3	6	33	-4.1
Cc1cc(C)nc(SCc2nnc(SCc3ccccc3Cl)o2)n1	9	-12%	0.4	0.5	1.5	-3	-6	/
CCCCOP(=O)(c1ccc(N(C)C)cc1)C(O)c1ccccc1F (stereo not given)	95*	-1%	4.9	-3.0	0.1	-7	1	/
COc1ccccc1N1CCN(C(=O)c2ccc(NS(=O)(=O)c3ccc(C)cc3)cc2)CC1	-3	-5%	0.0	-1.7	0.2	1	9	0.1
O=C(c1cnn(C(=O)c2ccco2)c1)c1cc(Cl)cc(Cl)c1O	/	/	5.0	/	-0.3	-5	/	0.3
O=C(CSc1nc2ccccc2[nH]1)Nc1cc(C(F)(F)F)ccc1N1CCOCC1	8	-3%	3.2	-2.0	1.2	5	9	/
Cc1cc(C(=O)OCC(=O)N2c3ccccc3NC(=O)C2(C)C)c(C)n1-c1ccccc1	4	2%	-4.2	-1.2	0.1	10	8	6.0
O=C(c1ccccc1)c1sc(N2CCOCC2)nc1-c1ccccc1	10	/	5.5	1.0	0.0	-1	30	9.7
COC(=O)c1c(O)cc(C(C)(C)C)n(-c2ccc(F)cc2)c1=O	2	/	1.4	?	-0.1	2	6	/
CC(=O)Nc1ccc(S(=O)(=O)N2CCN(S(=O)(=O)N3CCC(C)CC3)CC2)cc1	0	/	2.6	0.3	-0.5	5	7	1.1
O=C1OCCC/C1=C\c1ccc2c(c1)OCO2	11	?	-1.3	7.2	0.5	-1	7	-2.3
COc1cc(OC)cc(C(=O)NN2CCOCC2)c1	-11	10%	-1.7	1.1	0.3	-4	-4	-0.4

(further entries)
canonical_smiles	Calb FLC	Vif A3G	LANA-H2A inh	RanGTP-Impb inh	Bfl-1 A1 inh	Beta cell apopt	T cruzi repl	MLL AF4-AF9 inh
COc1ccc(CC(=O)NCc2ccc3c(c2)cc(C)n3C)cc1	1	/	1.6	-1.8	-0.3	2	-7	-1.5
COc1ccc(Cl)cc1S(=O)(=O)NCc1nc2nc(C)cc(C)n2n1	2	/	4.0	1.0	0.4	-2	-5	-6.3
NS(=O)(=O)c1ccc(Nc2ccc3cc(S(=O)(=O)N4CCCCC4)ccc3n2)cc1	6	/	-7.1	7.8	0.0	5	-7	-11
O=C(CSc1nnc(NC(=O)C2CC2)s1)Nc1ccccc1C(F)(F)F	6	/	-6.2	-3.4	0.3	-5	4	0.1
COc1ccc(CCC(=O)NCCS(=O)(=O)N2CCN(c3ccc(OC)cc3)CC2)cc1	-1	/	-0.3	0.6	-0.7	2	-18	2.1
CCOc1ccc(-c2noc(CCC(=O)NC)n2)cc1OCC	4	-5%	1.3	-3.8	-0.1	-4	-4	/
Cc1cnc(NC(=O)c2cc3ccccc3o2)s1	0	11%	-0.6	-0.6	-10	1	-3	-2.1
CCC(=O)Nc1ccc(-c2nnc(SCc3ccc(C(=O)Nc4nccs4)cc3)n2CC)cc1	-2	-11%	0.0	2.1	0.5	1	11	/
O=C(Nc1ccc(-c2nc3ccccc3o2)cc1)c1ccc2c(c1)OCO2	14	0%	-2.8	0.5	0.3	9	-31	3.5
O=CN1CC(=O)N(c2ccccc2)c2c([nH]c3ccccc23)C1	3	10%	3.8	-8.3	1.0	-3	-10	/
CN(C)CCNCc1ccc(OC2CCCC2)cc1	17	-3%	-0.1	-1.0	0.3	4	/	/
COc1ccc(-c2nc3ccccc3s2)cc1O	3	0%	-1.7	-22	-17	2	-2	/
